Compound activity as filed in PubChem.
ClpP mod – qHTS Assay for Activators of ClpP | Potency, µM (series often up to 57.5 µM), for inactives: at the top dose activity change, negative = active | 340,000 tested, 1.9% active | purified B. subtilis ClpP, FRET peptide cleavage, 20 min | ATP-dependent Clp protease proteolytic subunit (Bacillus subtilis (strain 168)), P80244 | AID 651965, 2013; active = well fitted falling curve with a large enough effect; inconclusive = small, poorly fitted or top-dose-only effect; inactive = no such curve, though single readings can be large or run the other way; also: the source files actives as falling curves though it sought activators and does not explain the sign; nearly all actives have a fitted effect of over 65% in size; many hits overshoot -100%
Target sequence (P80244 whole entry, looked up): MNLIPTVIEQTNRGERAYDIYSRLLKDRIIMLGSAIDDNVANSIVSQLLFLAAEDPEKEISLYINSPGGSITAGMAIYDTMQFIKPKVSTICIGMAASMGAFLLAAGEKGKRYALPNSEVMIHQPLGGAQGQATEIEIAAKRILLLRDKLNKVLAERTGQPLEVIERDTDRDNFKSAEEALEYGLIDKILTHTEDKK
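ClpP 10 microg/mL final, pH 8 Tris/KCl buffer with BSA, glycerol, Tween-20; compound pinned in; FRET-FV substrate; RT 20 min; Ex320/Em430; ΔFRET vs ADEP 5.8 microM, DMSO, no enzyme.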
PINK1 modulator – modulators of PINK1 expression; Potency, µM (top dose mostly 76.6 µM), for the others: top-dose activation (PINK1 increase), actives largely listed as activators; AID 624263; PINK1 immunofluorescence, high-content cytometry, 24 h; 410,000 tested, 0.2% active; active = well fitted activation curve with a large enough effect; inconclusive = small, poorly fitted or top-dose-only effect; inactive = flat fitted curve, though single readings scatter; cell line not stated here;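 also: % of control where 0% means no effect; nearly all actives have a fitted effect of over 65% in size; a mitochondrial uncoupler was the plate control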
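Fluorescence from anti-PINK1 antibody, together with nuclear and cell stains, was scanned on a laser-scanning cytometer. Before staining, stable-line cells were incubated 24 hours with compounds at 5 concentrations; primary antibody 12 h at 10 degrees C.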
An asterisk follows results filed as active; ? = inconclusive; & = joins results of further samples. Potency is read from the fitted curve at half-maximal effect. Some of the compounds tested (hit frequency here may not be typical).

The opening 2 entries as a preview:
SMILES	PINK1 modulator	ClpP mod
Cc1nc2nc(SCC(=O)NC(C)c3ccccc3)nn2c(C)c1Cc1c(F)cccc1Cl (stereo not given)	-0.2%	-5.9%
COc1ccc(CNC(=O)C2CCN(S(=O)(=O)c3c(C)noc3/C=C/c3cccs3)CC2)cc1	0.6%	-3.3%

The listing, repeating the preview:
SMILES	PINK1 modulator	ClpP mod
Cc1nc2nc(SCC(=O)NC(C)c3ccccc3)nn2c(C)c1Cc1c(F)cccc1Cl (stereo not given)	-0.2%	-5.9%
COc1ccc(CNC(=O)C2CCN(S(=O)(=O)c3c(C)noc3/C=C/c3cccs3)CC2)cc1	0.6%	-3.3%
O=C(CCS(=O)(=O)c1cccs1)Nc1ccc(C(=O)Nc2cccc(Cl)c2)cc1	-1.1%	-10.0%
CCN1CCN(c2csc3ccc(F)cc3c2=O)CC1	-0.5%	-19.9%
O=C(NCc1cccnc1)OC1CC2CC1[C@H]1CCCCN1C2=O (stereo not given in full)	1.4%	-1.5%
COc1ccccc1CNC(=O)C1CCN(S(=O)(=O)c2cn(C)cn2)CC1	-0.5%	-1.1%
CC(C)Cn1c(=O)c2ccccc2n2c(CCC(=O)NCc3ccccc3Cl)nnc12	0.3%	-8.3%
Cc1ccc(NC(=O)c2oc3ccccc3c2NC(=O)c2ccccc2C)cc1	0.8%	57.5%
CCCSc1nnc2[nH]c(=O)cc(C)n12	2.5%	-0.6%
O=C(COc1ccccc1[N+](=O)[O-])N(Cc1ccco1)c1ccccn1	-1.2%	0.9%
COc1cccc(NC(=O)CSc2nccn2C2CCCC2)c1	0.4%	-1.2%
Cc1ccc(C)c(S(=O)(=O)c2cn(Cc3ccccc3)c3cc(N4CCCC4)c(F)cc3c2=O)c1	7.8%	4.3%
COc1ccc(Cn2ccc3nc(C)c(C(=O)Nc4ccc(OC)cc4OC)cc3c2=O)cc1	1.7%	6.1%
COc1cccc(N2CCN(C(=O)c3cnc4c(C)cccn4c3=O)CC2)c1	1.6%	-2.5%
Cc1cccc(NC(=O)c2sc3ncnc(N(C)C4CCCCC4)c3c2C)c1C	0.6%	-0.8%
Cc1ccc(S(=O)(=O)CCC(=O)N2CCN(c3nc4c(C)c(Cl)ccc4s3)CC2)cc1	1.3%	-6.0%
O=C(NCCc1ccccc1)c1ccc2nc(CCc3ccccc3)oc2c1	1.2%	0.6%
Cc1sc2ncn(CC(=O)Nc3ccc(F)cc3Cl)c(=O)c2c1S(=O)(=O)N1CCN(c2ncccn2)CC1	0.6%	-16.0%
CC(C)(C)C1CCc2nc(NC(=O)COc3ccccc3[N+](=O)[O-])sc2C1 (stereo not given)	4.3%	-2.0%
CC1=C(C(=O)N2CCCCCC2)CC(CC(=O)NC2CCCCC2)C(=O)N1CCC1=CCCCC1 (stereo not given)	0.4%	1.8%
C=Cc1ccc(CSc2nnc(C)n3c2cc2occc23)cc1	-1.2%	-12.2%
CCOC(=O)N1CCN(Cc2nc3cc(NC(=O)c4cccc(C)c4)ccc3n2C(C)C)CC1	3.7%	0.2%
O=C(COc1ccc(Br)cc1)Nc1ccc(C(=O)OC2CCCCC2)cc1	0.7%	-1.2%
COc1ccc(NS(=O)(=O)c2c(C)nc3scc(C)n3c2=O)cc1	0.9%	-1.4%
CCOC(=O)c1c(-c2ccc(C)cc2)csc1NC(=O)c1cc(=O)c2cc(Cl)ccc2o1	1.7%	1.9%
COCCCNC(=O)C[C@@H]1C[C@@]2(C(=O)OC)CCCCC=C2N(Cc2cccc3ccccc23)C1=O	6.7%	-4.8%
Cc1ccc(-c2onc(C)c2C)cc1S(=O)(=O)Nc1cccc(Cl)c1C	4.3%	1.4%
Cc1nc(C#N)nc(Oc2ccccc2)c1Cl	0.8%	0.4%
O=C(NC1CCCCC1)C1c2ccccc2OCC(=O)N1Cc1cccnc1 (stereo not given)	0.3%	-2.6%
CC1CCN(S(=O)(=O)c2ccc3c(c2)c(=O)c(C(=O)NCCc2ccccc2)cn3C)CC1	0.8%	0.9%
CC1=C(c2ccc(C)cc2)S(=O)(=O)NC1=NCc1ccccc1Cl	3.4%	1.4%
Cc1ccc2oc(-c3ccc(C)c(NC(=O)c4ccc(-c5ccccc5[N+](=O)[O-])o4)c3)nc2c1	-0.4%	-0.9%
COC(=O)c1ccccc1NC(=O)CCn1nc(C)c2c(C)n(-c3ccccc3)nc2c1=O	1.0%	?
CCOC(=O)c1ccc(N2CCN(c3cccc(Cl)c3)CC2)c(NC(=O)Nc2ccc(Cl)cc2)c1	2.2%	?
COc1ccc(CCNC(=O)c2cc3c(=O)oc4ccc(C)cc4c3s2)cc1OC	1.8%	-13.6%
Cc1ccccc1NC(=O)c1ccc(N(Cc2ccccc2)S(C)(=O)=O)cc1	-0.7%	-5.0%
CCCCNC(=O)CCCn1c(=O)c2ccccc2n(CC(=O)Nc2ccccc2OCC)c1=O	1.4%	-0.2%
CCc1ccc(OC(C)C(=O)N2CCC(c3nc4ccccc4o3)CC2)cc1 (stereo not given)	-1.3%	-1.7%
CCOC(=O)c1c(-c2ccc(OC)cc2)oc2ccc(OCc3ccc(C(=O)OC)cc3)cc12	-3.7%	3.6%
CCn1c2c(c(=O)n3ncc(C(=O)Nc4ccc(OC(F)(F)F)cc4)c13)CN(Cc1ccc(OC)cc1)CC2	0.6%	?
Cc1ccc(Cn2nnc(C(=O)Nc3ccc(F)c(F)c3)c2N)cc1	-0.1%	-7.0%
CCCCCc1c(-c2ccc(Cl)cc2)ncn1CCc1ccccc1OC	-0.4%	?
COc1ccc(-c2cc(C(F)(F)F)n3nc(C(=O)Nc4cc(C)ccc4C)cc3n2)cc1	5.7%	-2.6%
COC(=O)Cn1c(=O)c2cccn2c2ccc(F)cc21	0.8%	-18.6%
COc1ccc(Cn2ccn(Cc3cccc(C)c3)c(=O)c2=O)cc1	1.2%	?
Cc1ccccc1NC(=O)c1sc2nc3n(c(=O)c2c1C)CCC3	1.0%	1.1%
COC(=O)c1ccc(NC(=O)CN2CCCN(Cc3ccc(Cl)cc3)S2(=O)=O)cc1	1.1%	-2.4%
CCCCn1c(=N)c(S(=O)(=O)c2ccc(Cl)cc2)cc2c(=O)n3cccc(C)c3nc21	2.3%	-1.3%
CCc1nn2c(=O)cc(COC(=O)c3ccccc3NC(=O)C3CCCCC3)nc2s1	-1.5%	-5.6%
CCCn1c(SCc2nc(-c3ccc(OC)c(OC)c3)no2)nnc1-c1ccccc1	-0.5%	2.1%
CCC(Oc1ccccc1)C(=O)Nc1ccccc1OCc1cc(=O)n2ccccc2n1 (stereo not given)	-5.6%	-4.2%
COc1ccc(-c2noc(N(c3cccc(Cl)c3)c3nc(-c4ccc(OC)c(OC)c4)no3)n2)cc1OC	4.7%	-6.2%
CC1CCCN(S(=O)(=O)c2ccc3[nH]c(=O)cc(C(=O)NCCc4ccc(Cl)cc4)c3c2)C1 (stereo not given)	1.1%	0.5%
CCc1ccc(NCc2cc3cc4c(cc3n(CC(=O)Nc3ccc(OC)cc3)c2=O)OCO4)cc1	0.6%	4.5%
CC(C)(C)C1CCN2CCCC(c3ccc([N+](=O)[O-])cc3)(C1)C21OCCO1 (stereo not given)	2.2%	0.5%
COc1cccc(CNCCSc2nnnn2C)c1OCc1ccccc1Cl	0.7%	4.0%
O=C(NCCn1cc(SCc2ccccc2Cl)c2ccccc21)c1cccs1	?	-2.3%
O=C(Nc1ncnc2nc[nH]c12)c1ccccc1	0.2%&0.6%	1.4%&-1.0%
Cc1nc2c(-c3ccccc3)c(C)nn2c(C)c1CCC(=O)NCCc1ccccc1	0.6%	-0.5%
Cc1ccc(NC(=O)c2nc(S(C)(=O)=O)ncc2N(Cc2ccco2)Cc2cccs2)c(C)c1	-1.9%	-2.9%

Continuation:
SMILES	PINK1 modulator	ClpP mod
COC(=O)c1ccc2nc(-c3ccc(C)cc3)c(Cc3ccc(C)cc3)n2c1	11.0%	-7.6%
Cc1ccc(-n2ncc(C(=O)NCCCN3CCN(c4cccc(Cl)c4)CC3)c2-n2cccc2)cc1	0.4%	0.4%
O=C(COc1ccccc1C(=O)Nc1cccc([N+](=O)[O-])c1)Nc1ccc(Br)cc1	1.1%	-2.1%
COc1cccc(-c2cc(C(F)(F)F)n3ncc(C(=O)OC(C)C)c3n2)c1	1.1%	-18.0%
CSc1cnn(CCC#N)c(=O)n1	0.1%	0.2%
CC1CN(C(=O)CCC(=O)Nc2cc(F)ccc2F)c2ccccc2S1 (stereo not given)	0.6%	-5.5%
CCc1ccc(N2CCn3c2nc2c3c(=O)n(C/C=C/c3ccccc3)c(=O)n2C)cc1	-0.7%	-11.4%
COC(=O)C1=C(C)NC(=O)C1(NC(=O)c1cc(OC)c(OC)c(OC)c1)C(F)(F)F (stereo not given)	0.4%	-1.4%
CCN1CCN(CCCNC(=O)Cn2nc(C)n3c(cc4cc(C)ccc43)c2=O)CC1	0.3%	?
CCn1ccc2cc(S(=O)(=O)N3CCCN(C(=O)Nc4ccc(C)cc4)CC3)ccc21	-0.7%	-4.6%
O=C(CN1C(=O)CCc2cc(S(=O)(=O)N3CCOCC3)ccc21)Nc1cccc(Cl)c1	-0.4%	-2.1%
C(=Nc1ccc2ccccc2n1)c1cccnc1	0.8%	3.5%
CCCOc1ccc(-c2nc(N3CCC(C)CC3)c3ccccc3n2)cc1	-0.4%	20µM*
O=C(Nc1ccc2oc(-c3cccnc3)nc2c1)c1cccc(Br)c1	0.2%	-4.0%
CCc1ccccc1NC(=O)c1sc2nc3n(c(=O)c2c1C)CCC3	0.2%	-1.8%
Cc1ccc(CNC(=O)Cn2cc(C(=O)c3ccc(F)cc3)c(=O)c3ccc(C)nc32)cc1	0.3%	-0.4%
CCOc1ccccc1NC(=O)c1c(NCc2sccc2C)sc2c1CCCCC2	0.0%	0.2%
O=C(NCCS(=O)(=O)N1CCN(c2cccc(Cl)c2)CC1)C(c1ccccc1)c1ccccc1	0.7%	-0.1%
COc1ccc(-c2sc3ccccc3c2-c2ccc(OC)cc2F)cc1	-0.3%	4.5%
Cc1cccc(NC(=O)Cc2csc(COc3cccc(C)c3)n2)c1	-2.9%	0.5%
O=C(Nc1c(C(=O)c2ccc(F)cc2)oc2ccccc12)c1cc(-c2ccccc2)on1	5.1%	4.4%
COC(=O)c1c(NC(=O)COc2ccc(Cl)cc2C)sc2c1CCCCC2	-0.8%	-2.3%
COc1ccc(C(=O)n2nc(-c3ccc(Cl)cc3)nc2NCc2ccco2)cc1	0.8%	0.7%
CCCCc1ccc(NC(=O)c2ccc3c(c2)CCN3S(=O)(=O)CC)cc1	8.6%	-29.3%
Cc1ccc(NC(=O)CSCc2cc(=O)c3ccccc3[nH]2)c(C)c1	3.6%	-0.9%
O=C(Cc1ccc(F)cc1)NCCc1csc2nc(-c3ccc(Cl)cc3)nn12	2.1%	-5.0%
COc1ccc(NC(=O)c2cc(=O)c3cc(C)cc(C)c3o2)cc1	4.4%	-1.3%
COc1ccc(CCNc2nc(SCc3ccc(Cl)cc3)nc3ccccc23)cc1OC	2.0%	-3.1%
CC(CNC(=O)c1ccc2nc(Cc3ccccc3)oc2c1)c1ccccc1 (stereo not given)	2.4%	-0.3%
CCCCn1cc(S(=O)(=O)c2ccc(C)cc2)c(=O)c2cc(F)c(N3CCCCC3)cc21	-1.6%	?
COc1ccc(CCNC(=O)Cn2c(-c3ccc(F)cc3)cc(C(C)=O)c2C)cc1OC	0.2%	0.5%
Cc1ccc(OCC(=O)N(Cc2ccc(Cl)cc2)CC2CCCO2)cc1C (stereo not given)	1.0%	0.0%
O=C1N(Cc2ccccc2)c2ccc(Cl)cc2C1(O)c1c[nH]c2ccccc12 (stereo not given)	2.7%	-10.4%
CCOc1ccc(-n2cc(-c3ccccc3)c3c(N4CCN(c5ccccc5OC)CC4)ncnc32)cc1	-0.3%	?
Cc1ccc(C2CCN(C(=O)c3cnn(-c4cccc(Cl)c4)c3C3CCN(C(=O)OC(C)(C)C)CC3)C2)cc1 (stereo not given)	1.3%	1.1%
COC(=O)CSc1nc2sc3c(c2c(=O)n1-c1ccccc1C)CC(C)(C)OC3	2.6%	8.1%
CCOC(=O)c1cc2ccccc2n1C1CCN(C)CC1	-0.7%	-18.4%
Cc1ccc(NC(=O)Cc2coc3c(C)c(C)ccc23)c(C)c1	2.8%	1.0%
O=C(Cn1cnc2onc(-c3ccc(F)cc3)c2c1=O)N1CCN(c2ccccc2F)CC1	-3.9%	-1.4%
COc1cccc(NC(=O)c2ccc(-c3nc(COc4ccc(C)cc4)c(C)o3)cc2)c1	-1.0%	-7.2%
CN(C)CCCNc1nccc(N2CCN(C)CC2)n1	5.3%	-1.7%
